# High-throughput results from PubChem BioAssay.
# gsp antagonist – qHTS for Antagonists of gsp, the Etiologic Mutation Responsible for Fibrous Dysplasia/McCune-Albright Syndrome: qHTS | gsp-mutant cells, cAMP HTRF, 30 min; control for the full effect not named in the record | actives 0.4% (n = 340,000) | AID 624288, 2012 | Potency, µM (series often up to 76.9 µM), for the others: at the top dose activity change, negative = inhibition, most hits filed as inhibitors; active = falling curve of any shape with a large fitted effect; inconclusive = falling curve, mostly with a smaller effect; inactive = flat or rising curve; cell line not stated here;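 also: intracellular cAMP measured with PDE inhibitor Ro 20-1724 present during compound exposure; potency is read from the fitted curve at half-maximal effect; % is scaled to controls: 0 for no effect and ±100 for the full control effect; nearly all actives have a fitted effect of over 65% in size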
#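 G418-selected cells were plated in DMEM/10% FBS for 16-24 h at 37C, then treated with compounds plus the PDE inhibitor […] (300 uM solution added) for 30 min at 37C. Intracellular cAMP was measured by HTRF after 30 min lysis at room temperature.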
# Sfp PPTase inh – qHTS Assay for Inhibitors of Bacillus subtilis Sfp phosphopantetheinyl transferase (PPTase). 4'-phosphopantetheinyl transferase ffp (Bacillus subtilis), Q9F4F7. Biochemical Sfp PPTase activity, qHTS. Potency, µM, for inactives: max response, negative = inhibition, usual class: inhibitors. actives 3.5% (n = 310,000). AID 1490, 2009; active = well fitted inhibition curve with a large enough effect; inconclusive = small, poorly fitted or top-dose-only effect, or another doubt; inactive = no such curve, though single readings can be large or run the other way;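 also: the enzyme is Sfp with the accession as filed and its product quenches rhodamine fluorescence; potency is read from the fitted curve at half-maximal effect; 0% = enzyme reaction without inhibitor and -100% = no enzyme wells; top concentration of the series not given in the record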
#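 Sfp 15 nM + cpd, 15 min RT; start w/ rhodamine-CoA 5 uM, BHQ-2-YbbR 12.5 uM (final); 50 mM Hepes pH 7.6, 10 mM MgCl2, 0.01% NP-40, 0.01% BSA; read 525/598 nm at 0 and 30 min.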
# ClpP mod – qHTS Assay for Activators of ClpP; ATP-dependent Clp protease proteolytic subunit (Bacillus subtilis (strain 168)), P80244; actives 1.9% (n = 340,000); Potency, µM (highest dose often 57.5 µM), for the others: at the top dose activity change, negative = active; purified B. subtilis ClpP, FRET peptide cleavage, 20 min; active = well fitted falling curve with a large enough effect; inconclusive = small, poorly fitted or top-dose-only effect; inactive = no such curve, though single readings can be large or run the other way; also: potency is read from the fitted curve at half-maximal effect; the source files actives as falling curves though it sought activators and does not explain the sign; nearly all actives have a fitted effect of over 65% in size; many hits overshoot -100%
# Target sequence (P80244 whole entry, looked up): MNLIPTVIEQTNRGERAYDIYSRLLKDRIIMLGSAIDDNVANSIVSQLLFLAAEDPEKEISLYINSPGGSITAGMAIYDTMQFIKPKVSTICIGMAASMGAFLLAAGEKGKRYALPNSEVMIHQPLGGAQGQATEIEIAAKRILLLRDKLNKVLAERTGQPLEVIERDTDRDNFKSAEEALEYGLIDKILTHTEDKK
#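 Purified B. subtilis ClpP, 10 microg/mL final in Tris/HCl pH8 with KCl, BSA, glycerol and Tween-20, cleaved an Abz/nitrotyrosine-quenched decapeptide. Fluorescence (ex 320, em 430) was read at 0 and 20 min at room temperature. Delta was normalized to 5.8 microM ADEP and DMSO/no-enzyme controls.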
# PINK1 modulator – A Quantitative High throughput Screen to Identify Chemical Modulators of PINK1 Expression; PINK1 immunofluorescence, high-content cytometry, 24 h; Potency, µM (titrated, usually from 76.6 µM), without a hit: at the top dose activation (PINK1 increase), usual class: activators; actives 0.2% (n = 410,000); AID 624263, 2012; active = well fitted activation curve with a large enough effect; inconclusive = small, poorly fitted or top-dose-only effect; inactive = flat fitted curve, though single readings scatter; cell line not stated here;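 also: potency is read from the fitted curve at half-maximal effect; % of control where 0% means no effect; nearly all actives have a fitted effect of over 65% in size; a mitochondrial uncoupler was the plate control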
#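 Compound titrations (5 concentrations, 24 h) on a stable cell line; DMSO and CCCP controls. Endpoint: fixed-cell PINK1 immunofluorescence with mitochondrial, cell and nuclear markers, scanned by microplate cytometer.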
# D2 agonist – Beta-Arrestin HTS for Positive Allosteric Modulators of the Human D2 Dopamine Receptor: Agonists; DiscoveRx PathHunter D2 beta-arrestin, luminescence, 90 min; 100% = 57 uM dopamine signal; actives 0.084% (n = 360,000); AID 624465, 2012; D(2) dopamine receptor (Homo sapiens), P14416; activation, % (concentration not given with the values); in the data active = activation above about 40%; inconclusive = about 15% to 40%; inactive = below about 15%; also: compound concentration not given in the record; the text of the record calls up to 30% inactive
# Target sequence (P14416 whole entry, looked up): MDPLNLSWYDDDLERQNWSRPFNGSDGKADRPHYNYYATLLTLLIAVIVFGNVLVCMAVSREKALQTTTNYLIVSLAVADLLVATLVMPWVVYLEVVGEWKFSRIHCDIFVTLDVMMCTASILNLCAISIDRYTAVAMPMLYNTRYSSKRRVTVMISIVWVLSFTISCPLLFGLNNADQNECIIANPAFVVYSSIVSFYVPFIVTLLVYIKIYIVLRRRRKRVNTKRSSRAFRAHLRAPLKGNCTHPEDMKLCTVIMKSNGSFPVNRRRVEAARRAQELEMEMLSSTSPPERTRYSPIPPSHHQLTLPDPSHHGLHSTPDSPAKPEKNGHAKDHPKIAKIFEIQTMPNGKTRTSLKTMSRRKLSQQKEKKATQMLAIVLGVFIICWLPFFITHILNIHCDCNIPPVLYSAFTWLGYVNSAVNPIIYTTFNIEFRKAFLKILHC
#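 Agonist mode: compounds alone added to overnight-plated D2 PathHunter cells for 90 min at 37 C, with 57 uM final dopamine (EC100) defining full response. Beta-arrestin recruitment detected by chemiluminescent reagent, read after 1 h at ambient temperature.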
# gsp ag – qHTS for Agonist of gsp, the Etiologic Mutation Responsible for Fibrous Dysplasia/McCune-Albright Syndrome: qHTS; Potency, µM (titrated, usually from 76.9 µM), for inactives: at the highest dose activation (cAMP increase), most hits filed as activators; actives 0.13% (n = 340,000); AID 624287, 2012; gsp mutant cells, cAMP HTRF, 30 min; control for the full effect not named in the record; active = well fitted activation curve with a large enough effect; inconclusive = small, poorly fitted or top-dose-only effect, or another doubt; inactive = no such curve, though single readings can be large or run the other way; cell line not stated here;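 also: phosphodiesterase inhibitor Ro 20-1724 added with compounds to block cAMP breakdown; potency is read from the fitted curve at half-maximal effect; nearly all actives have a fitted effect of over 60% in size; about a fifth of the inactives were tested at one dose only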
#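 Cells stably selected in G418 were plated at 2000/well, grown 16-24 hr, then given compounds in DMSO with the PDE inhibitor […] (300 uM solution added) for 30 min at 37C; cAMP was read by HTRF.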
# Menin MLL FP FL – qHTS Assay for Inhibitors Targeting the Menin-MLL Interaction in MLL Related Leukemias: Competition With Fluorescein Labeled MLL-derived Peptide; FP activity change, % at 61.4 µM; Fluorescence polarization, fluorescein-MLL peptide displacement from menin; AID 1766, 2009; 290,000 tested, under 10 active; inconclusive = falling polarisation curve, or a change in total fluorescence; inactive = total fluorescence flat and polarisation flat or rising; no compound was filed as active; the % refers to the polarisation; negative = inhibition;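 also: % of control where 0% means no effect; inhibitors lower the polarisation; unlabelled MLL peptide was the positive control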
# * marks the source's active call; other numbers are inactive results; u = inconclusive; x = no result given; & = joins results of further samples; [ ] = remark or other dose.
# Results follow in this order: gsp antagonist	Sfp PPTase inh	ClpP mod	PINK1 modulator	D2 agonist	gsp ag	Menin MLL FP FL
> CCN(CC)S(=O)(=O)c1cccc(C(=O)N[C@H](C(=O)O)C(C)C)c1
    10%	17%	1.2%	-0.1%	-2.7	-15%	-1.0
> Oc1cccc(C2c3[nH]c4ccccc4c3CCN2Cc2cnn(-c3ccccc3)c2)c1 (centres undefined)
    -2%	21%	-0.8%	9.8%	1.2	10%[15.4 µM]	0.4
> O=c1ncn(-c2cccc(F)c2)c2ncccc12
    15%	-7%	-0.6%	-1.0%	-4.0	-47%[inhibitor]	-1.5
> N#Cc1cc2cc3c(cc2nc1SCC(=O)N1CCOCC1)OCO3
    18%	12%	x	u	-0.5	-21%[15.4 µM]	-15
> O=C(O)c1cc2c([nH]c1=O)CCCC2
    -3%	-2%	u	-0.7%	-2.9	5%	2.5
> COc1ccccc1C(=O)NC1CCCc2ccccc21 (centres undefined)
    -5%	-7%	x	1.6%	2.0	23%	-4.7
> c1ccc2cc(Sc3ncnc4c3oc3ccccc34)ccc2c1
    11%	8%	0.6%	4.9%	-3.1	1%	1.8
> CCCCSc1c(C)c2cc3c(cc2[nH]c1=O)OCO3
    4%	8%	u	5.6µM*	0.3	u	1.6
> CC[C@H]1OC(=O)[C@H](C)[C@@H](O[C@H]2C[C@@](C)(OC)[C@@H](O)[C@H](C)O2)[C@H](C)[C@@H](O[C@@H]2O[C@H](C)C[C@H](N(C)C)[C@H]2O)[C@](C)(O)C[C@@H](C)C(=NOCOCCOC)[C@H](C)[C@@H](O)[C@]1(C)O
    -3%	14%	-3.5%	0.6%	1.1	x	-2.0
> COc1ccccc1-n1ccnc1SCC(=O)NCC1CCCO1 (centres undefined)
    12%	11%	0.0%	-0.8%	-7.9	u	-4.1

# Brought forward from above: two entries, followed by the next part.
# Results follow in this order: gsp antagonist	Sfp PPTase inh	ClpP mod	PINK1 modulator	D2 agonist	gsp ag	Menin MLL FP FL
> CC[C@H]1OC(=O)[C@H](C)[C@@H](O[C@H]2C[C@@](C)(OC)[C@@H](O)[C@H](C)O2)[C@H](C)[C@@H](O[C@@H]2O[C@H](C)C[C@H](N(C)C)[C@H]2O)[C@](C)(O)C[C@@H](C)C(=NOCOCCOC)[C@H](C)[C@@H](O)[C@]1(C)O
    -3%	14%	-3.5%	0.6%	1.1	x	-2.0
> COc1ccccc1-n1ccnc1SCC(=O)NCC1CCCO1 (centres undefined)
    12%	11%	0.0%	-0.8%	-7.9	u	-4.1
> COCOc1cccc(CN2CCC(C)(Oc3ccc(C(C)=O)cc3)C2)c1 (centres undefined)
    x	x	-3.7%	2.5%	3.1	x	x
> Cc1nc2ccccc2c(=O)n1NC(=O)c1ccc(F)cc1Cl
    -4%	12%	0.7%	-3.4%[38.3 µM]	-1.8	u	0.7
> O=C(CCn1cnc2ccccc2c1=O)Nc1nc(-c2ccc(Br)cc2)cs1
    4%	-12%	0.8%	8.4%	-1.4	-11%	-0.7
> Cc1cccc(C(=O)NCC(=O)OCC(=O)NC2CCCCCCC2)c1
    -1%	x	-0.1%	1.7%	-2.1	-2%	x
> CCc1ccc(NC(=O)CSc2nncn2-c2cccnc2)cc1
    4%	17%	-0.5%	2.5%	-5.7	-3%[15.4 µM]	-1.2
> CCOc1ccc(/C=C2\CCc3ccccc3C2=O)cc1
    5%	-12%	x	4.5%	2.0	1%	-0.6
> CC1CCCN(C(=O)Cn2c(-c3nonc3N)nc3ccccc32)C1 (centres undefined)
    -12%	-4%	-4.4%	24%[38.3 µM]	-5.1	6%	2.6
> CCOc1cc(NC(=S)NCC2CCCO2)c(OCC)cc1NC(=O)CC (centres undefined)
    -2%	11%	0.2%	-1.3%	2.4	-33%	2.6
> CS(=O)(=O)NCCSCc1c(Cl)cccc1Cl
    -6%	0%	-1.1%	-0.7%[38.3 µM]	3.2	-12%	2.0
> CS(=O)(=O)c1cc([N+](=O)[O-])c(Sc2nc3ccccc3[nH]2)c([N+](=O)[O-])c1
    -28%	13µM*	-3.1%	-0.3%[38.3 µM]	4.0	u	4.2
> CCCn1c(=NC(=O)c2c(-c3c(F)cccc3Cl)noc2C)c(C(=O)OCC)cc2c(=O)n3ccccc3nc21
    x	0%	-11%	12%	x	x	-11
> COc1ccc(NC(=S)N2CCN(Cc3ccccc3)CC2)c(OC)c1
    2%	23%	-1.5%	2.2%	-2.9	-53%	-1.3
> COc1ccc(/C(N)=N/OC(=O)CSc2ccc(C)cc2)cc1OC
    -8%	u	-1.1%	7.6%[38.3 µM]	-1.9	-18%	-0.9
> CCCCn1c(SCC(=O)c2ccc3c(c2)NC(=O)CO3)nc2cc(S(N)(=O)=O)ccc21
    u	u	-1.4%	-0.3%	-1.1	7%	9.7
> Clc1cccc(CNc2ccn3nc(-c4cccc(Cl)c4)cc3n2)c1
    x	x	u	u	u	x	x
> CCOC(=O)C1=CCC(c2ccccc2)N(S(=O)(=O)c2ccccc2C)C1 (centres undefined)
    x	x	0.2%	1.2%	-0.7	x	x
> CCOC(=O)C(NCc1ccc2c(c1)OCO2)(NC(=O)CC)C(F)(F)F (centres undefined)
    10%	7%	0.1%	-0.4%	-0.3	1%	0.6
> CC(=O)N(C)C(c1ccc(N(C)C)cc1)c1nnnn1-c1c(C)cccc1C (centres undefined)
    -10%	10%	-5.0%	2.6%	-3.4	-15%	3.8
> O=[N+]([O-])c1ccc(COc2cccc(CNc3ccc(F)cc3)c2)cc1
    1%	-1%	-1.4%	11%	-1.8	-18%	32[activator]
> COc1ccc(C2C(C(=O)Nc3ccc(F)cc3)=C(C)Nc3nc(CCCO)nn32)cc1 (centres undefined)
    6%	16%	0.1%	0.7%	-3.3	-31%[inhibitor]	0.0
> COc1ccccc1CC(NC(C)=O)C(=O)NC1CCN(C(=O)Nc2ccccc2F)CC1 (centres undefined)
    -18%	14%	x	2.2%	-3.1	0%[15.4 µM]	x
> CC(C)c1ccc(CNc2nc3nc4c(c(=O)n3[nH]2)CCC4)cc1
    4%	-6%	x	1.0%	-3.9	-13%	-1.1
> Cc1cccc(Oc2c([N+](=O)[O-])c(=O)n(C)c3ccccc23)c1
    -24%	6.3µM*	0.2%	2.7%	3.0	-66%[inhibitor]	1.6
> COC(=O)C1CCN(C(=O)CCCOc2ccccc2)CC1
    14%	7%	-0.5%	-1.5%	-2.2	-21%	-2.6
> COc1ccc(C2CC(c3ccccc3C(F)(F)F)=NN2c2ccc(S(N)(=O)=O)cc2)cc1 (centres undefined)
    -6%	x	4.6%	-1.5%	-1.1	x	x
> O=C(/C=C/c1ccc2c(c1)OCO2)NCCSCc1ccc(Cl)cc1
    u	18%	u	1.5%	-3.0	10%	5.1
> CCOc1ccc2nc(NC(=S)N(C)C)sc2c1
    -18%	40µM*	1.0%	1.0%	-6.4	6%	1.5
> COC(=O)c1cc2occc2n1Cc1nc(-c2ccccc2F)oc1C
    8%	23%	-0.4%&0.7%	4.0%&-0.7%	-4.2	13%	0.2
> CC(=O)Nc1cccc(NC(=O)Nc2cccc(F)c2)c1
    -18%	3%	1.0%	1.1%	-2.6	-3%	-0.6
> CN(C)c1ccc(C(=O)c2ccccc2)cc1
    4%	-10%	-2.8%	1.7%	-1.0	-31%	1.2
> COCCN1C(=O)C(=O)/C(=C(/O)c2ccc(S(=O)(=O)N3CCOCC3)cc2)C1c1ccc(O)c(OC)c1 (centres undefined)
    4%	-16%	0.3%	-1.3%	0.5	22%	-1.2
> CCN1CCN(S(=O)(=O)c2cccc(S(=O)(=O)N3CCOCC3)c2)CC1
    1%	-6%	x	1.0%	-4.2	-6%[15.4 µM]	-7.5
> CC(=O)c1ccc(N2CCN(C(=O)Cc3cccs3)CC2)cc1
    -6%	21%	x	0.0%	-0.7	-24%	-0.1
> N/C(=N\OC(=O)c1cccs1)c1cccc(Br)c1
    4%	1%	x	3.8%	u	24%	1.4
> Cc1cc(C)c(C)c(S(=O)(=O)Nc2ccccc2C(=O)NCCCn2ccnc2)c1C
    -8%	12%	35µM*	0.3%	0.3	-7%	-1.2
> COc1ccc(-n2nc(C(=O)NCC(=O)NCCCN3CC(C)CC(C)C3)c3ccccc3c2=O)cc1Cl (centres undefined)
    1%	16%	x	0.4%	-3.0	-1%	-6.9
> CCOc1cc(CNCCCN2CCOCC2)ccc1OCC(=O)NC(C)(C)C
    7%	14%	x	1.1%	-3.3	-30%	-0.5
> COc1ccccc1CNC(=O)C1CCC(CNS(=O)(=O)c2ccc(F)cc2)CC1 (centres undefined)
    0%	3%	x	2.4%	5.1	0%	-3.8
> Cc1cccc(C(=O)OC(C)C(=O)N2CCN(Cc3ccccc3)CC2)c1 (centres undefined)
    7%	x	2.5%	2.4%	-0.2	23%	x
> CCOC(=O)CSc1nc2ccc(C)cc2n2cnnc12
    4%	8%	x	0.6%	-2.5	21%	6.0
> Cc1c([C@H]2[C@@H](CC#N)C2(C)C)c2ccccc2n1C
    -10%	-5%	-2.5%	1.8%	0.7	1%	2.5
> Clc1ccc(CNc2ccc(N3CCN(Cc4ccccc4)CC3)cc2)cc1
    -12%	2%	-3.0%	u	u	10%[15.4 µM]	2.6
> COc1ccc2cc(C(C)C(=O)OC(C)C)ccc2c1 (centres undefined)
    -4%	x	-6.5%	27%	-5.4	-8%	x
> O=C(c1ccccc1)N1CCC(c2nc(-c3ccc(S(=O)(=O)NCC4CCCO4)cc3)no2)CC1 (centres undefined)
    u	6%	-0.9%	x	0.3	-62%[inhibitor]	0.3
